LANA-H2B inh: blocks KSHV LANA binding to histone H2A/H2B | Q9QR71 | cell-free LANA-H2A/H2B peptide, fluorescence polarization | inhibition, % (test concentration not listed) | hit rate 0.6% among 320,000 | AID 2629; in the data active = inhibition mostly above about 10%, no sharp cut-off; inactive = mostly below about 6.7%;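 also: stock transfer was 7.5 nL into about 10 µL; 0% = median of vehicle wells and 100% = median of positive control wells; one replicate is shown; the record names a cut of 25% in any replicate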
Target sequence (Q9QR71 whole entry, looked up): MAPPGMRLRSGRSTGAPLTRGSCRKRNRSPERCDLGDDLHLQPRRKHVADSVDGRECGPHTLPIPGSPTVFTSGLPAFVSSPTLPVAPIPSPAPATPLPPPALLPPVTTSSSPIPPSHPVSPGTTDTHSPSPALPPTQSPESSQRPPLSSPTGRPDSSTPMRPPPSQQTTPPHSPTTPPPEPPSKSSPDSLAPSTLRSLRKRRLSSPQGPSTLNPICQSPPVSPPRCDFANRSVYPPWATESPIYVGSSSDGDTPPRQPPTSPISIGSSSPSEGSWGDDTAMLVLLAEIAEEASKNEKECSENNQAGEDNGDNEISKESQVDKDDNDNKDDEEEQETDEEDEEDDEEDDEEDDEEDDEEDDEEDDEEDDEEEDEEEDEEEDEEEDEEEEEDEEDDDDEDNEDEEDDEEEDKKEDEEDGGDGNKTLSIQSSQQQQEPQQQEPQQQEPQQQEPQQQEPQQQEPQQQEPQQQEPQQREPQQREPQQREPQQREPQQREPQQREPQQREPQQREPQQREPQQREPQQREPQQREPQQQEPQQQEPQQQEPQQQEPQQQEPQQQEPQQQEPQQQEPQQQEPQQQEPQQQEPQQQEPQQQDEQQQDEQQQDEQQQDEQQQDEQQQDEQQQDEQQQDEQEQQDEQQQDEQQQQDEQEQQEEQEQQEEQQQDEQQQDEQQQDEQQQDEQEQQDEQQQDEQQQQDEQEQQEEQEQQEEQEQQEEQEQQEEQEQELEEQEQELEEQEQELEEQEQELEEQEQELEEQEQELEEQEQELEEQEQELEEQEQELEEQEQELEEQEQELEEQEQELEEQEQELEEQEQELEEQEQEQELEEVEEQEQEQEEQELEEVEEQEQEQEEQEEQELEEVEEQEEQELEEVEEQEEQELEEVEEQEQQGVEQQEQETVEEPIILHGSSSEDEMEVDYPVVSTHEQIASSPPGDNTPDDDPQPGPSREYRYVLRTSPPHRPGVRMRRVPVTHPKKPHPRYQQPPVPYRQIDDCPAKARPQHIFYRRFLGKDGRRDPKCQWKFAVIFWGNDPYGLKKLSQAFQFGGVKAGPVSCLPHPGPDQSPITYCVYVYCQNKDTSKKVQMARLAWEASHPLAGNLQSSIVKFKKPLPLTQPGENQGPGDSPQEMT
T cruzi inh: blocks replication of Trypanosoma cruzi. T. cruzi beta-gal in NIH3T3, luminescence, 90 h. inhibition, % (test concentration not listed). hit rate 1.4% among 300,000. AID 1885;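 active = mean inhibition across valid replicates above about 55%, limit read from the data; inconclusive = mean below that limit but half or more replicates reach it; inactive = mean below it, under half of replicates reach it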;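 also: signal also drops with host cell toxicity which is not excluded here; 0% = plate median of DMSO wells and 100% = zero luminescence signal; higher percent means less beta-gal luminescence so fewer parasites; stock transfer was 50 nL into about 50 µL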
RanGTP-Impb inh: disruptors of Ran-importin-beta complex formation – biochemical, FRET, CFP-Ran, YFP-importin-beta, homogeneous, primary screen; inhibition, % (no concentration beside the values); AID 2216; hit rate 1.1% among 300,000; cell-free CFP-Ran/YFP-importin-beta FRET ratio;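 active = most replicates above 15%; inconclusive = exactly half above 15%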;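 also: 0% = DMSO wells and 100% = Ran loaded with GDP instead of GTP; wells of about 40 µL received 100 nL stock; the first replicate is given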
Calb FLC: affects C. albicans growth with fluconazole | C. albicans CaCi-2 (fluconazole-resistant clinical isolate) + fluconazole, Alamar Blue growth, 48 h | growth inhibition, % (no concentration beside the values) | hit rate 0.57% among 300,000 | AID 1979;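 active = most replicates above 75%; inconclusive = exactly half above 75%; inactive = most below 75%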;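 also: all wells also contain fluconazole at 8 µg/ml as a sub-toxic cotreatment; 0% = median of DMSO wells and 100% = median of geldanamycin control wells; wells of about 8 µL received 7.5 nL stock; the first replicate is given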
Beta2AR agonist: agonists of human beta-2 adrenergic receptor inducing internalization. hit rate 0.43% among 340,000. response, % (no concentration beside the values). Am2.2-beta2AR cells, FAP receptor internalization, flow cytometry; reference of the scale not given here. P07550;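 active = response above a set limit, near 3 SD of response in nonfluorescent compounds, cut at about 42% in these data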;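 also: stock transfer was 100 nL into about 11 µL; a reference agonist was the positive control; negative values mostly stem from fluorescent compounds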
A1 inh: inhibitors of the anti-apoptotic protein A1, read as caspase activation. MEF A1-2A-BIM cells, Caspase-Glo 3/7 luminescence, 3 h; percent of clofoctol response, vehicle zero. hit rate 0.066% among 330,000. caspase activation, % (concentration not given with the values);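 active = over half of replicate activation scores above 10%, or exactly half above 10 with the replicate mean above 10; inconclusive = replicate mean below 10 yet half the replicates above 10; inactive = over half of replicates below 10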;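 also: wells of about 30 µL received 50 nL stock; many hits fall short of the cut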
UCH37 inh: inhibitors of human deubiquitinating enzyme UCH37 | hit rate 0.33% among 330,000 | purified proteasome/UCH37, Ub-AMC cleavage fluorescence | Q9Y5K5 | inhibition, % (test concentration not listed);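 active = mean of two replicates above 20%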;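 also: 0% = compound-free wells with enzyme and 100% = wells lacking proteasome; stock transfer was 100 nL into about 20 µL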
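assay system = human UCH37 enzyme supplied as purified proteasome complex | amount = proteasome at 0.15 nM in the dispensed enzyme solution | schedule = 30 min compound-proteasome preincubation then 25 min substrate reaction, room temperature | measured by = fluorescence, ex 355 nm, em 460 nm | benchmarks = no-proteasome wells (full inhibition) and compound-free wells (no inhibition)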
Beta apoptosis: beta cell apoptosis inhibition | INS-1E cytokine-induced death, ATP luminescence, 48 h; percent of positive-control rescue, neutral wells zero | protection from apoptosis, % (no concentration beside the values) | hit rate 0.8% among 300,000;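 active = all replicates at 75% or more, or half of them and the mean; inconclusive = half reach 75% but not the mean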;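 also: 0% = cytokine-treated negative control wells and 100% = positive control rescue; higher means more ATP so stronger rescue from cytokine killing; wells of about 40 µL received 100 nL stock; the first replicate is given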
* marks the source's active call; other numbers are inactive results; u = inconclusive; x = no result given; & = joins results of further samples. The order is random; about 4.3% have a hit in one of these screens.

SMILES | LANA-H2B inh | T cruzi inh | RanGTP-Impb inh | Calb FLC | Beta2AR agonist | A1 inh | UCH37 inh | Beta apoptosis
CN(C)S(=O)(=O)c1cccc(NC(=O)CN2C(=O)NC(Cc3c[nH]c4ccccc34)C2=O)c1 (stereo not given) | -6.3 | -26 | 2.2 | -10 | 1 | -0.1 | 6.2 | x
Cc1ccccc1OCCC(=O)N1CCN(S(=O)(=O)c2ccc(F)cc2)CC1 | 3.0 | 2 | -2.5 | 12 | -5 | 0.3 | 0.1 | 0
Cc1oc(S(=O)(=O)N(C)C)cc1C(=O)Nc1ccc(F)cc1 | -0.2 | 1 | 0.1 | 3 | 12 | -0.2 | 1.6 | -9
CCn1c(=O)c2cc(C(=O)N(C)c3cc(C)ccc3OC)sc2c2ccccc21 | 1.8 | 46 | 2.8 | 3 | 26 | 0.0 | 3.7 | 10
COc1ccc(CCC(C)NCc2ccc(C(F)(F)F)cc2)cc1 (stereo not given) | -1.0 | -12 | 0.3 | -9 | 3 | -1.4 | 0.9 | -4
CCCNc1c(NC(=O)COc2ccc(Cl)cc2)c(=O)oc2ccccc12 | -2.7 | 3 | -1.6 | 4 | 10 | 0.2 | -0.3 | 12
CC(C)CCNC(=O)CCSCCC(=O)NCCC(C)C | 0.6 | -11 | 1.2 | -8 | -9 | 0.1 | -2.3 | -2
COc1ccc(OC)c(NC(=O)CCN2CCC(C)CC2)c1 | -1.2 | -14 | 0.8 | -11 | 3 | 0.4 | 2.2 | x
Cc1cccc(C)c1NC(=S)N(Cc1cccnc1)Cc1ccccc1Cl | 0.9 | 48 | 1.6 | 13 | -6 | 0.8 | 2.8 | 4
CCn1c(SCc2cc(=O)n3ccsc3n2)nc2ccccc21 | 1.2 | 0 | 5.4 | 9 | 4 | -0.2 | 1.3 | 2
O=C(CCNC(=O)c1ccc(Br)cc1)Nc1ccccc1N1CCCC1 | 0.9 | -6 | 4.2 | 1 | -3 | 0.6 | 2.1 | x
CCOC(=O)N1CCN(C(=O)Cn2nc(C)n3nc(-c4ccc(OC)cc4)cc3c2=O)CC1 | 1.1 | 7 | 2.3 | -3 | -4 | -0.9 | -1.9 | 0
CC(C)c1nnc(NC(=O)COc2ccc3c(c2)OCO3)s1 | -2.3 | -1 | 3.5 | 7 | -10 | -0.6 | 4.4 | -1
CCOC(=O)N1CCN(Cc2ccc(OCC(O)CN3CCCCC3)cc2)CC1 (stereo not given) | -0.2 | 6 | -5.1 | 3 | -1 | -1.0 | 1.5 | x
COc1ccc(CNC(=O)CN(Cc2ccccc2)S(=O)(=O)c2ccc(Cl)cc2)cc1 | 2.8 | 74* | 4.9 | 8 | -4 | -1.8 | 3.6 | 9
COc1ccccc1CNC(=O)c1ccc(NC2=NC3CS(=O)(=O)CC3S2)cc1 (stereo not given) | 2.6 | -13 | -1.2 | -3 | -1 | -0.7 | 4.5 | -1
CSc1ccccc1C(=O)Nc1cccc(C(C)O)c1 (stereo not given) | -2.0 | -12 | u | 4 | -2 | 0.1 | 2.3 | -2
COc1cc(CCCN2C(N)=NC[C@@H]2Cc2ccc(O)cc2)cc(OC)c1OC | -1.4 | -16 | 0.8 | 18 | 1 | 0.4 | -0.2 | -4
CCOC(=O)C(=O)N=Nc1c(O)n(C)c2ccccc12 | -2.5 | -15 | u | -6 | -5 | -0.4 | 12 | 2
COc1ccc(-c2nnn(CC(=O)c3ccccc3)n2)cc1OC | -0.7 | -4 | 3.8 | 11 | -9 | 0.8 | 3.8 | -5
Cc1cc(C2=NNC(=NCCc3ccccc3)SC2)c(C)n1-c1c(C)n(C)n(-c2ccccc2)c1=O | -4.2 | 10 | -0.6 | -1 | 0 | 0.7 | 7.1 | -1
CCCNC(=O)COC(=O)/C(C#N)=C/c1cc(C)n(CCC)c1C | 3.9 | 6 | 3.1 | 19 | 5 | -0.7 | -99 | 5
COc1ccc(C(=O)c2c[nH]c(C(=O)NCC3CCCO3)c2)cc1 (stereo not given) | 1.3 | 5 | 9.0 | -7 | 1 | -1.6 | 0.0 | -5
CCOCCCNC(=O)Cc1ccc(F)cc1 | 0.5 | -29 | u | -12 | x | 0.8 | 3.6 | 5
CSCC[C@H](N)C(=O)N1CCC(C(=O)N[C@H](C)C(=O)Nc2ccc(C(C)C)cc2)CC1 | -1.0 | -12 | 6.9 | -17 | 5 | -0.1 | 2.3 | -6
CCOC(=O)CN1C(=O)C(=O)N(Cc2c(C)cc(C)cc2C)C1=O | -5.6 | -8 | 4.3 | 1 | 0 | 0.8 | 5.2 | -1
O=C(c1ccc(Cl)c([N+](=O)[O-])c1)N(Cc1ccco1)C1CCS(=O)(=O)C1 (stereo not given) | 7.5 | -9 | 2.1 | u | 4 | 0.6 | -0.2 | 2
CCOC(CNC(=O)c1ccc2nc(N3CCC(C)CC3)sc2c1)OCC | -0.9 | 1 | -2.9 | -6 | 3 | -0.1 | 0.0 | -1
O=C(O)c1ccccc1-c1ccccc1C(=O)Nc1ccc(-c2nc3cc(Cl)ccc3o2)cc1 | -0.3 | 1 | -14 | u | 5 | 0.4 | -36 | -7
Cc1cccc(NC(=O)CN2CCN(C(=O)c3ccc(OCc4cn5ccccc5n4)cc3)CC2)c1C | -1.5 | x | x | x | -3 | 1.5 | -3.0 | -1
CC(=O)/C=C(/C)NC(Cc1c[nH]c2ccccc12)C(=O)O (stereo not given) | 7.1&1.0 | -10&-6 | 0.4&0.3 | 30&35 | -1&1 | 0.3&0.1 | 3.7 | -5&0
CCn1cnc2sc(C(=O)N3CCN(c4ccc(OC)cc4)CC3)c(C)c2c1=O | -4.0 | -2 | -2.2 | 4 | 4 | 0.1 | 2.1 | 10
Nc1nnnn1N=C1CCCCC1 | -0.9 | -8 | -3.0 | -1 | 17 | 1.1 | 0.0 | -8
CC(=O)N(C)c1ccc(NC(=O)c2ccc([N+](=O)[O-])cc2Cl)cc1 | -0.8 | 12 | 5.9 | 7 | 1 | 1.3 | 1.0 | -6
NNC(=O)c1nn(-c2ccccc2)cc1O | 1.8 | -13 | 1.2 | 10 | x | -0.3 | -32 | 63
CCCCC(CC)CNC(=O)c1ccc2c(c1)OCO2 (stereo not given) | 1.2 | 16 | 4.6 | -55 | 3 | -0.4 | -2.2 | 2
O=C(N/N=C/c1ccc(N2CCOCC2)cc1)c1cccs1 | -1.2 | 0 | -0.5 | u | -5 | 0.6 | x | 5
COc1ccccc1N(CN1CCCC1=O)C(=O)c1c(F)cccc1F | 3.0 | -10 | 2.0 | -20 | -2 | -0.1 | 0.5 | 3
COc1cccc(NC(=O)C(=O)c2cn(CC(=O)N3CCOCC3)c3ccccc23)c1 | 4.9 | -3 | 2.9 | u | 5 | 0.5 | 8.8 | 12
O=[N+]([O-])c1cccc(Cl)c1N1CCOCC1 | -4.0 | -10 | -2.8 | -12 | -4 | 0.3 | 3.2 | -1
Cn1nc(C(=O)NCc2ccccn2)c2ccccc2c1=O | -0.6 | -7 | 4.1 | -3 | 2 | 1.7 | 1.3 | -4
CC(Sc1nncs1)C(=O)Nc1ccc(Cl)cn1 (stereo not given) | 0.2 | -18 | -5.1 | -2 | 9 | 0.3 | 0.8 | -8
COc1ccc(OC)c(N2C(=O)CC(Cc3ccc(Cl)cc3)C2=O)c1 (stereo not given) | -1.5 | -4 | -3.0 | 21 | 6 | 0.4 | 2.9 | 0
CCOC(=O)c1c(-c2ccc(F)cc2)csc1NC(=O)CCN1C(=O)c2ccccc2C1=O | -2.5 | 7 | -3.0 | 5 | -6 | 2.1 | -1.2 | -7
COc1ccc(NC(=O)c2ccc(CNS(=O)(=O)c3cccc(OC)c3)cc2)cc1 | -4.4 | -1 | 4.3 | -3 | 2 | 0.2 | 2.2 | -2
CS(=O)(=O)N(CC(=O)NCCSc1ccc(Cl)cc1)c1ccc2c(c1)OCO2 | 19* | 17 | -0.9 | -1 | -3 | -0.5 | 0.4 | 1
CC(O)CNc1nc2c(c(=O)n(C)c(=O)n2C)n1Cc1cccc(Br)c1 (stereo not given) | -2.5 | -18 | 2.0 | 2 | -2 | 0.4 | 0.5 | -2
Cc1cccc(OCC(=O)Nc2ccc3c(C)cc(=O)oc3c2)c1 | 1.3 | -2 | 1.0 | -7 | 9 | -0.1 | -61 | 2
CCN(CC(=O)Nc1c(F)cccc1F)C(=O)C1CCN(C(=O)Nc2ccccc2)CC1 | 2.8 | x | x | x | -5 | -1.0 | -0.3 | 3
Cc1ccccc1NC(=O)c1cccc(N2C(=O)C3C4CC(C(Br)C4Br)C3C2=O)c1 (stereo not given) | -8.7 | x | x | -8 | 5 | 0.7 | 1.0 | -2
O=C(Nc1ccc([N+](=O)[O-])cc1)Nc1ccc(OC(F)F)c(Cl)c1 | -3.3 | x | x | x | 15 | 1.3 | 4.4 | 132*
CCCCCCC#Cc1cncc(C(=O)NNC(=O)Nc2cc(Cl)cc(Cl)c2)c1 | 3.9 | -33 | 1.2 | -13 | 2 | -0.1 | x | 5
COc1ccc(OC)c(S(=O)(=O)N2CCN(C(=O)CCc3ccccc3)CC2)c1 | 1.3 | 2 | -0.5 | 3 | 2 | 0.9 | 1.8 | -1
CN1CCN(S(=O)(=O)c2cccc(C(=O)Oc3ccc(C(C)(C)C)cc3)c2)CC1 | 5.4 | 7 | 3.1 | -5 | 9 | 0.7 | 1.3 | -6
CCS(=O)(=O)N1CCC2(CC1)OCCN2S(=O)(=O)c1ccc(OC)cc1 | x | -2 | 5.1 | 1 | 3 | x | 3.2 | x
COc1cc(C2C(C#N)=C(C)NC3=C2C(=O)c2ccccc23)cc(OC)c1OC (stereo not given) | -0.7 | x | x | x | 10 | 1.2 | 4.5 | 1
Cc1ccc(-c2ccc(/C=N/n3cnnc3)o2)cc1Cl | 0.5 | 0 | -2.9 | 32 | 1 | -0.7 | x | -6
Clc1ccc(-c2cc(CN3CCCCC3)no2)cc1Cl | 8.8 | 17 | -2.4 | -17 | -4 | -1.2 | 4.6 | -4
COCCCNC(=O)CNC(=O)c1nn(-c2ccc(OC)cc2)c(=O)c2ccccc12 | -0.3 | -6 | 5.1 | -2 | -2 | 1.9 | 3.0 | -1
CC(Sc1n[nH]c(N)n1)C(=O)Nc1cccc2ccccc12 (stereo not given) | -1.1 | x | x | x | -3 | 0.8 | 0.4 | -3
O=C(O)c1c2c(nc3ccc(Cl)cc13)CCC2 | 3.2 | -18 | -2.5 | 18 | 4 | 0.3 | -0.8 | -1
Nc1nnnn1/N=C/c1ccc(N2CCCCC2)c([N+](=O)[O-])c1 | -3.2 | -11 | -2.7 | 13 | -14 | 0.0 | x | -6
O=C(O)c1ccccc1-c1ccccc1C(=O)Nc1ccc2c(c1)CCC2 | 1.9 | -13 | -11 | 3 | -2 | 2.6 | 1.6 | -2

Assay outcomes: PubChem BioAssay, several laboratories
